Bioassay records deposited in PubChem by Southern Research Institute.
Mtb growth – Mycobacterium tuberculosis H37Rv growth inhibition, cell based, confirmatory dose response (AID 1949). most inactive calls were filed without a number and no value below 0 was filed. inhibition, % at 10 µg/mL; hits with a dose series show IC50 in µg/mL. 100,000 tested, 1.6% active;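 active = confirmed in a dose series; inconclusive = about 50% or more but not retested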;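 also: bacteria grown 7 days with compound before Alamar blue readout; 0% = untreated bacteria and 100% = reference antibiotic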
The depositor's hits bear a star; i = inactive; ? = inconclusive. This is a subset; the hit share may differ from the screen's.

SMILES	Mtb growth
Cc1ccc(OCC(=O)Nc2ccc(Cl)c(C(F)(F)F)c2)c(C)c1	i
CCOc1cc(NC(=O)c2cc(OC)c(OC)c(OC)c2)c(OCC)cc1NC(=O)c1ccccc1	i
COC(=O)c1sc(NC(=O)c2cccnc2)c(C(=O)OC)c1C	i
C=CCNC(=O)CN(Cc1ccccc1)S(=O)(=O)c1c(C)cc(C)cc1C	10%
COc1cc([N+](=O)[O-])ccc1NC(=O)Nc1ccc(F)cc1C	1%
O=C(Nc1ccc(Cl)cc1C(=O)Nc1ccccn1)c1ccc(Cl)cc1Cl	i
CCN1C(=O)C(CC(=O)Nc2ccc(F)cc2)N(CCc2ccccc2F)C1=S (stereo not drawn)	i
Cc1ccc(S(=O)(=O)NC(C)C(=O)Nc2ccc(C)c(Cl)c2)cc1 (stereo not drawn)	1%
COc1ccc(NC(=O)c2c(NCc3cccnc3)sc3c2CCC3)cc1	i
CC(C)Sc1ncnc2scc(-c3ccccc3)c12	6%
C=CCSc1ncnc2sc(-c3ccccc3)cc12	i
C=CCn1c(CSc2nc3sc4c(c3c(=O)[nH]2)CCCC4)n[nH]c1=S	i
O=C(Nc1ccccc1)Nc1c(F)cccc1F	i
O=C(c1ccccc1)N1CCN(C(=O)c2cccc(COc3ccc4c(c3)CCC4)c2)CC1	7%
Cc1occc1C(=O)N1CCN(S(=O)(=O)c2ccccc2)CC1	i
CCCOc1cccc(C(=O)NC(=S)Nc2cc(C)cc(C)c2)c1	4%
COc1ccc(N(CC(=O)Nc2cc(C)ccc2C)S(=O)(=O)c2ccc(OC)c(OC)c2)cc1	i
Cc1ccc(C(=O)Nc2ccc(C(F)(F)F)cc2)cc1	i
O=C(Cc1ccc(F)cc1)NC1CCCCC1NC(=O)Cc1ccc(F)cc1 (stereo not drawn)	2%
CC(C)c1ccc(N(CC(=O)Nc2ccccc2C(N)=O)S(=O)(=O)c2ccccc2)cc1	15%
CNCCCCOc1cccc(Oc2ccccc2)c1	1%
Cc1cccc(C(=O)Nc2sc3c(c2C(=O)N2CCCC2)CCCCC3)c1	i
Fc1ccc(-c2csc(N3CCN(C/C=C/c4ccccc4)CC3)n2)cc1	2%
COc1ccc(NC(=O)C23CCC(C)(C(=O)O2)C3(C)C)cc1 (stereo not drawn)	i
CCCCOc1ccc(N2CC(C(N)=O)CC2=O)cc1 (stereo not drawn)	40%
CCOC(=O)c1cc(C)sc1NC(=O)c1ccc(Cl)s1	i
Cc1ccc(C(=O)COc2cc3oc(=O)cc(C)c3cc2Cl)cc1	i
Cc1cc(C)n(-c2nnc3n2N=C(c2c[nH]c4ccccc24)CS3)n1	1%
COc1ccc(S(=O)(=O)Nc2cc(Cl)c3oc4c(c3c2)C(=O)CCC4)cc1[N+](=O)[O-]	i
CSc1nc2c(c(=O)[nH]1)C(c1ccncc1)C1=C(CCCC1=O)N2 (stereo not drawn)	i
Cc1cccc(Oc2c(C(F)(F)F)oc3c(CN4CCN(C)CC4)c(O)ccc3c2=O)c1	i
CCOC(=O)CCc1c(C)c2ccc(OCC(=O)C(C)(C)C)c(C)c2oc1=O	i
CC(c1ccccc1)n1c(CCCO)nc2ccccc21 (stereo not drawn)	i
N/C(Cc1ccc(Cl)cc1Cl)=N\OC(=O)c1ccccc1F	27%
C=CCn1c(SCC(=O)Nc2ccc(C)c(C)c2)nnc1-c1ccc([N+](=O)[O-])cc1	1%
CCOc1ccc(-c2nc3cc(N)ccc3o2)cc1	i
CCC(C)c1ccc(OCC(=O)Nc2c(C)cc(C)cc2C)cc1 (stereo not drawn)	1%
CN1C(=O)C(O)(C2COC(C)(C)CC2=O)c2ccccc21 (stereo not drawn)	i
Cc1cccc(OCC(=O)N2CCN(S(C)(=O)=O)CC2)c1	i
Cc1ccc(C(NC(=O)c2cccnc2)c2cc(Cl)c3cccnc3c2O)cc1 (stereo not drawn)	i
COc1ccc(NC(=O)c2ccccc2NC(=O)c2ccco2)cc1	i
CCOc1ccccc1NC(=O)c1c(NC(=O)c2ccccc2C)sc2c1CCC(C)C2 (stereo not drawn)	i
CCOc1cc(NC(=O)c2ccc(Cl)cc2)c(OCC)cc1NC(=O)c1ccccc1	3%
O=[N+]([O-])c1ccccc1CN1CCC(N2CCCC2)CC1	5%
COc1cc(NC(=O)COc2cc(C)c(Cl)c(C)c2)ccc1NC(=O)C(C)C	i
Cc1ccc(-c2nc3ncccc3o2)cc1NC(=S)NC(=O)C(c1ccccc1)c1ccccc1	2%
Cc1ccc(S(=O)(=O)NCC(=O)Nc2cccc([N+](=O)[O-])c2)cc1	i
O=C(CSCc1cccc(Cl)c1)NCc1ccc2c(c1)OCO2	i
CN(C)C(=O)CSc1n[nH]c(-c2ccccc2)n1	i
COc1ccc(CNC(=O)c2sc3nc4c(c(C(F)(F)F)c3c2N)CC(C)CC4)cc1OC (stereo not drawn)	i
Cn1c(=O)[nH]c(=O)c2c1nc(N1CCCCC1)n2CCSc1nc2ccccc2s1	i
O=C(Nc1nc2ccccc2s1)c1cccc(C(F)(F)F)c1	1%
CCN(CC)c1noc2c1C(c1ccccc1)c1cc(N)ccc1-2 (stereo not drawn)	5%
COC(=O)Cc1c(C)c2ccc(OCC(=O)Nc3ccc(OC)c(Cl)c3)c(C)c2oc1=O	i
O=C(Nc1cccc([N+](=O)[O-])c1)c1ccc(CN2CCOCC2)cc1	i
S=c1[nH]nc(Cc2cccs2)n1-c1ccc2c(c1)OCCO2	i
COc1ccccc1NC(=O)C1=C(C)Nc2nnnn2C1c1cccnc1 (stereo not drawn)	i
Cc1cc(NC(=O)Nc2ccccc2[N+](=O)[O-])no1	2%
COc1cccc(NC(=O)CSc2nnc(-c3ccc(Br)cc3)o2)c1	3.1µg/mL*
COc1ccc(CCNC(=O)c2ccccc2NC(=O)c2ccco2)cc1OC	i

A stretch from further up, as a working copy:
SMILES	Mtb growth
CN1C(=O)C(O)(C2COC(C)(C)CC2=O)c2ccccc21 (stereo not drawn)	i
Cc1cccc(OCC(=O)N2CCN(S(C)(=O)=O)CC2)c1	i
Cc1ccc(C(NC(=O)c2cccnc2)c2cc(Cl)c3cccnc3c2O)cc1 (stereo not drawn)	i
COc1ccc(NC(=O)c2ccccc2NC(=O)c2ccco2)cc1	i
CCOc1ccccc1NC(=O)c1c(NC(=O)c2ccccc2C)sc2c1CCC(C)C2 (stereo not drawn)	i
CCOc1cc(NC(=O)c2ccc(Cl)cc2)c(OCC)cc1NC(=O)c1ccccc1	3%
O=[N+]([O-])c1ccccc1CN1CCC(N2CCCC2)CC1	5%
COc1cc(NC(=O)COc2cc(C)c(Cl)c(C)c2)ccc1NC(=O)C(C)C	i
Cc1ccc(-c2nc3ncccc3o2)cc1NC(=S)NC(=O)C(c1ccccc1)c1ccccc1	2%
Cc1ccc(S(=O)(=O)NCC(=O)Nc2cccc([N+](=O)[O-])c2)cc1	i
O=C(CSCc1cccc(Cl)c1)NCc1ccc2c(c1)OCO2	i
CN(C)C(=O)CSc1n[nH]c(-c2ccccc2)n1	i
COc1ccc(CNC(=O)c2sc3nc4c(c(C(F)(F)F)c3c2N)CC(C)CC4)cc1OC (stereo not drawn)	i
Cn1c(=O)[nH]c(=O)c2c1nc(N1CCCCC1)n2CCSc1nc2ccccc2s1	i
O=C(Nc1nc2ccccc2s1)c1cccc(C(F)(F)F)c1	1%
CCN(CC)c1noc2c1C(c1ccccc1)c1cc(N)ccc1-2 (stereo not drawn)	5%
COC(=O)Cc1c(C)c2ccc(OCC(=O)Nc3ccc(OC)c(Cl)c3)c(C)c2oc1=O	i
O=C(Nc1cccc([N+](=O)[O-])c1)c1ccc(CN2CCOCC2)cc1	i
S=c1[nH]nc(Cc2cccs2)n1-c1ccc2c(c1)OCCO2	i
COc1ccccc1NC(=O)C1=C(C)Nc2nnnn2C1c1cccnc1 (stereo not drawn)	i

Additional records
SMILES	Mtb growth
O=C(NCc1ccc2c(c1)OCO2)c1ccc2c(c1)C(=O)N(Cc1cccnc1)C2=O	2%
COc1ccc(CNC(=O)COc2ccccc2Cl)cc1	i
Cc1ccc(S(=O)(=O)N2CCN(S(=O)(=O)N3CCCCC3)CC2)c(C)c1	i
C=CCNC(=S)NNC(=O)Cc1ccc(OC)c(Cl)c1	i
COc1cc(Cl)c(S(=O)(=O)N2c3ccccc3CC2C)cc1Cl (stereo not drawn)	0%
O=C(O)CCNCc1ccccc1	i
Cc1ccc(S(=O)(=O)N(C)c2ccc(C(=O)Nc3ccc(S(=O)(=O)N4CCCCC4)cc3)cc2)cc1	i
Oc1c(C(Nc2ccccn2)c2cccc(Cl)c2)cc(Cl)c2cccnc12 (stereo not drawn)	8%
CCCCCOc1ccc(C(=O)NCCCCCC(=O)O)cc1	i
Cc1ccc(NC(=O)CC(C)C)c(NC(=O)CC(C)C)c1	1%
O=S(=O)(c1ccc(F)cc1)N1CCN(S(=O)(=O)c2ccc(F)cc2)CC1	i
COc1ccc(N2C(=O)CCC2(C(N)=O)c2ccccc2)cc1 (stereo not drawn)	i
CCN(C(=O)N1c2ccccc2Sc2ccccc21)c1nnc(-c2ccccc2)s1	i
O=C(CSc1nnc(-c2ccco2)o1)NCC(=O)c1ccccc1	i
Cc1sc2ncn(Cc3ccccc3Cl)c(=O)c2c1C	3%
Cc1ccn2c(-c3csc(Nc4ccc(O)cc4)n3)c(C)nc2c1	i
C=CCc1cc(OC)ccc1OCCCn1ccnc1	i
CCOC(=O)c1c(NC(=O)CSc2ncn[nH]2)sc(C)c1C	i
O=C(c1ccccc1C(=O)N1CCc2ccccc2C1)N1CCc2ccccc2C1	i
CCc1nnc(NC(=O)CSc2ncccn2)s1	i
COc1ccc(OC)c(NC(=S)NC2CC2)c1	i
CN(C)CCCN(CCCN(C)C)Cc1ccc(Br)cc1	2%
COc1ccc(C(=O)ON=C2C(C)=CC(=O)C=C2C)cc1	i
CCN(CC)C(=O)c1sc(NC(=S)n2cc(C)cn2)c(C(=O)OC)c1C	i
CC(C)c1ccc(CNC(=O)C(C)N2C(=O)c3ccccc3C2=O)cc1 (stereo not drawn)	i
COc1cc(OC)c(NC(=O)c2cc3ccccc3oc2=O)cc1Cl	i
COc1ccc(C(=O)CSc2nnc(-c3ccccc3)n2-c2ccc(OC)cc2)cc1	i
CCn1c(SCC(=O)c2ccc(OC)cc2)nnc1-c1cccs1	i
Cc1ccccc1NC(=O)CSc1ncnc2sc(C)c(C)c12	i
Cc1nc(SCC(=O)NNC(=O)c2cccs2)[nH]c(=O)c1C	6%
O=C(Nc1ccc2c(c1)OCO2)NC1CCCCC1	i
O=C(Oc1ccccc1NC1=NS(=O)(=O)c2ccccc21)c1ccco1	i
CCOc1ccc(C(=O)NC(=S)Nc2ccc(F)cc2F)cc1Cl	3%
CCC(C)c1ccccc1OCCCCN1CCOCC1 (stereo not drawn)	1%
C=CCNC(=S)Nc1ccc2nsnc2c1	i
CCc1nc2sc3c(c2c2nnc(SCC(=O)Nc4ccccc4)n12)CCC3	i
O=C(Cc1ccccc1)NN1C(=O)C2C3C=CC(O3)C2C1=O (stereo not drawn)	i
Cc1cc(C)c(NC(=O)c2cccc(NC(=O)c3ccco3)c2)c(C)c1	i
COc1ccc(CCC(=O)Nc2cc(C)ccc2C)cc1	i
CSc1ccc(S(=O)(=O)NC(C)c2ccccc2)cc1 (stereo not drawn)	i
Fc1cccc(C2NC(=S)NC3=C2N2CCC3CC2)c1 (stereo not drawn)	1%
Cc1ccc(C)c(NC(=O)c2ccccc2Sc2ccc([N+](=O)[O-])cc2)c1	i
CCNc1cc(N2CCN(C(=O)c3ccco3)CC2)ccc1[N+](=O)[O-]	1%
COc1cc(OC)c(OC)cc1/C=C(\C#N)C(N)=S	i
CC(=O)Nc1ccc(S(=O)(=O)N2CCN=C2C)cc1	i
C=CCn1c(SCC(=O)Nc2ccc([N+](=O)[O-])cc2)nnc1-c1cc(Br)ccc1O	1%
CC(=O)Nc1ccc(NC(=O)CN(C)S(=O)(=O)c2cc(Cl)ccc2Cl)cc1	i
COc1ccc(NC(=O)c2ccco2)c(NC(=O)c2cccs2)c1	i
Cn1nnc2cc(NC(=O)Nc3ccccc3)ccc21	i
COc1ccc(C)cc1S(=O)(=O)Nc1ccc2c(c1)OCO2	i
Cc1cccc(C(=O)Nc2nnc(CC(=O)NCc3ccccc3)s2)c1	i
C#CC(CC)(CC)NC(=O)c1ccc(Br)s1	i
COc1cc(CO)ccc1OCc1ccc(C)cc1	4%
CC(=O)c1cccc(NC(=O)Nc2ccccc2Sc2ccccc2)c1	i
CCOC(=O)COc1ccc2cc(-c3nc4ccccc4[nH]3)c(=O)oc2c1	?
Cc1ccc(-c2cc(C(F)F)n3ncc(C(=O)NCCCN4CCCC4=O)c3n2)cc1	2%
Cc1ccc(NC(=O)c2cc(-c3ccc(C)cc3C)nc3ccccc23)nc1	i
O=C(Cn1cnc2ccccc21)NCCCN1CCOCC1	i
COc1ccc(S(=O)(=O)N(CC(=O)Nc2cccc([N+](=O)[O-])c2)c2cccc(Cl)c2)cc1	0%
O=C(O)C1CC=CCC1C(=O)NCCCn1ccnc1 (stereo not drawn)	2%

Other structures
SMILES	Mtb growth
Cc1ccc(S(=O)(=O)N(CC(=O)NC2CC2)c2ccccc2F)cc1	i
CCc1ccccc1N1CCN(S(=O)(=O)c2cc(F)ccc2OC)CC1	i
CC(=O)Nc1ccc(N2CCOCC2)c(C(=O)Nc2cccc(C)c2)c1	i
Cc1ccc([N+](=O)[O-])cc1S(=O)(=O)Nc1ccc(O)c(Sc2nc3ccccc3s2)c1	i
O=C(Nc1ccc(Cc2ccncc2)cc1)c1cncc(Br)c1	1%
Cc1ccc(-c2csc3nc(SCC(=O)N(C)C)n(Cc4ccccc4)c(=O)c23)cc1	i
CCN1CCN(S(=O)(=O)c2cc(C)c(OC)cc2C)CC1	i
O=C(Nc1ccc(-c2nc3ccccc3[nH]2)cc1)c1ccc(Br)o1	1%
O=C(c1ccc(Cl)cc1)c1ccc(OC(=O)N2CCOCC2)cc1	5%
Cc1ccc(-c2noc(CN3CCN(C(c4ccccc4)c4ccccc4)CC3)n2)cc1	i
Cc1cccc(NC(=O)C(CC(=O)O)NCc2ccccc2)c1 (stereo not drawn)	1%
COc1c(Cl)ccc(Cl)c1C(=O)NC(=O)Nc1nc(C)cc(C)n1	i
Cc1ccc(S(=O)(=O)N(CC(=O)Nc2cc(Cl)ccc2C)c2ccccc2Cl)cc1	4%
COC(=O)c1ccc2c(c1C)NC(c1ccc([N+](=O)[O-])cc1)C1CC=CC21 (stereo not drawn)	i
